# Screens as filed in PubChem.
# NPYLR7 ag: agonists of mosquito NPYLR7 receptor, primary screen, cell-based, Aedes aegypti, calcium fluorescence, mosquito biting behavior | HEK293T NPYLR7/Galpha15, GCaMP6s calcium fluorescence | activation, % at 10 µM | hit rate 0.15% among 270,000; in the data active = activation above about 40%;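 note: 0% = vehicle and 100% = reference agonist at the receptor; some compounds past the cut are filed as inactive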
# NPYLR7 ag max-min: second read-out of NPYLR7 ag, no call of its own (marks repeat the call); activation, %; measured here: Max-Min RFU normalised activation; some inactives read as strong as hits;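 span of the calcium signal over five minutes; 0% = vehicle and 100% = native peptide agonist; compound fluorescence can raise it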
# * marks the source's active call; other numbers are inactive results; & = joins results of further samples. An excerpt; count on the stated rates, not on these rows.
Compound | NPYLR7 ag max-min | NPYLR7 ag
COCCN(Cc1ccc(OC)c(OS(C)(=O)=O)c1)C(=O)c1ccc(Cl)cc1Cl | 9 | 1
CC(C)(Oc1cccc(Cl)c1)C(=O)N1CCCC(n2cncn2)C1 (stereo not given) | -4 | -4
CCOC(=O)c1oc2cc(O)cc(O)c2c(=O)c1-c1ccc(OC)cc1 | -11 | -3
CC=CCn1c(=O)c2c(nc3n2CC(C)=NN3Cc2ccc(F)cc2)n(C)c1=O | -9 | -12
O=C(CC1CCCC1)NCc1nnnn1C1CCCCC1 | 2 | 5
CC(=O)NC1=NN(C(C)=O)C(C)(c2ccco2)S1 (stereo not given) | 5 | 11
Cc1cccc2oc(=O)n(C3CCN(C(=O)c4cccnc4Cl)CC3)c12 | 3 | 5
CC1CCCCN1S(=O)(=O)c1ccc(C(=O)Nc2cccnc2)cc1 (stereo not given) | -1 | -1
Cc1nccn1CCNC(=O)C1CCCN(C2CCN(C(=O)C3CC3)CC2)C1 (stereo not given) | 6 | 10
CCc1cnc2c(c1SCCN(CC)CC)c(=O)n(C)c(=O)n2C | 10 | 5

# Next part:
Compound | NPYLR7 ag max-min | NPYLR7 ag
c1ccc(CSc2nnc3ccc(-c4ccncc4)nn23)cc1 | -4 | -11
COc1ccccc1C(=O)N1CCCN(c2cnc3ccccc3n2)CC1 | 10 | 13
N#CC(C#N)=C(C=Cc1ccc(OC(F)F)cc1)C1CC1 | 15 | 2
O=c1nc(SCc2cccc3ccccc23)c2c(n1CCCO)CCC2 | -14 | -7
CC(=O)O[C@@H](C)C(=O)N1CCN(c2nc3nccc(-c4ccc5c(c4)OCO5)n3n2)CC1 | -1 | 1
CN1CCN(C(=O)c2ccccc2N2CCC(NC(=O)c3ccc(Cl)cc3)CC2)CC1 | 17 | 27
COc1cc(C(=O)NS(=O)(=O)c2ccccc2C)ccc1Cc1cn(C)c2ccc(NC(=O)OC3CCCC3)cc12 | -7 | -2
Cc1ccc(C)c(Cn2c(=O)c3c(nc4n(CCOCCO)c(C)cn34)n(C)c2=O)c1 | 11 | 0
CC(C)Nc1nn(CN(C)Cc2ccccc2Cl)c(=S)s1 | 3 | 5
CCc1ccc(C(C2Sc3nc(CC)nn3C2=O)N2CC(C)OC(C)C2)cc1 (stereo not given) | -13 | -6

# Next structures follow.
Compound | NPYLR7 ag max-min | NPYLR7 ag
CC1CCN(C(=O)CSc2nc3ccccc3c(=O)n2C2CC2)CC1 | 14 | 1
COc1ccc(-n2nnc3c(SCC(=O)N4CCc5ccccc54)ncnc32)cc1 | 13 | 11
CC1(C)OCC(CNC(=O)c2ccc(-c3cc(-c4cccc(C(F)(F)F)c4)n[nH]3)cc2)O1 (stereo not given) | 5 | -2
CC(=O)Nn1ccc2c(cnc3nc(-c4ccccc4)nn32)c1=O | 4 | 3
O=C1CCCC/C1=C\Nc1nc(-c2ccccc2)cs1 | 2 | 3
COc1ccc(-n2nc(-c3ccc(Cl)cc3)cc2NC(=O)CCC2CCCC2)cc1 | -8 | -3
CC(C)C(C(=O)O)N1C(=O)/C(=C/c2ccc(N(C)C)cc2)SC1=S (stereo not given) | 41* | 54*
O=C(Nc1cccc([N+](=O)[O-])c1)C1CCN(c2ccc(-c3ccccc3)nn2)CC1 | -8 | -3
CC(C)(C)c1cc(N)n(C(C)(C)C)n1 | 2 | 9
CC1CN(C(=O)CCCCSc2nnc(Cc3ccccc3)n2-c2ccccc2)CCN1C(=O)CCl (stereo not given) | -2 | -1

# (next part)
Compound | NPYLR7 ag max-min | NPYLR7 ag
CC(C)c1noc(C2CCCN2C(=O)c2cnnn2-c2ccccc2)n1 (stereo not given) | -2 | -3
Cc1noc(C)c1CN1C(=O)C(C)ON=C1c1ccc(CN2CCOCC2)cc1 (stereo not given) | 9 | 13
COC(=O)CCc1c(C)nn(-c2ccc(C(=O)N(CC(C)C)CC(C)C)cc2)c1C | -33 | -29
CC(C)Cc1nnc(NC(=O)c2ccc(Cl)c(Cl)c2)s1 | 0 | 2
O=c1oc2ccccc2n1-c1nc2ccccc2o1 | 9 | 9
Cc1cc(NCCN2CCCC(CO)C2)nc(-c2ccccc2)n1 (stereo not given) | 3 | 5
CCC1SC(c2ccc(C)cc2)N(CCN2CCN(C(=O)c3cccs3)CC2)C1=O (stereo not given) | 14 | 5
COc1cccc(C2=NN(C(=O)CN3CCN(C(C)=O)CC3)C(c3ccccc3F)C2)c1 (stereo not given) | -1 | -3
COCC(C)NC(=O)Nc1ccccc1CN1CCc2ccccc21 (stereo not given) | 7 | 7
OC(c1cccc(Cl)c1)c1nnc(Nc2ccccc2)s1 (stereo not given) | -1 | -1

# (more compounds)
Compound | NPYLR7 ag max-min | NPYLR7 ag
COc1cccc(Cc2nsc(N3CCC(C(=O)N4CCN(c5ccccc5OC)CC4)CC3)n2)c1 | -14 | -10
COc1ccc(C(CC(=O)NC2CCN(Cc3ccccc3)CC2)c2cn(C)c3ccccc23)cc1OC (stereo not given) | 4 | 6
CCC(=O)C1=C(c2ccc(F)cc2)N(C(=O)CC)n2c(nnc2C2CCCCC2)S1 | 5 | 7
COc1ccccc1N1CCN(C(=O)c2ccc(OC(C)=O)cc2)CC1 | -3 | -1
COC(=O)c1ccccc1SCc1csc(-c2ccc(OC)c(OC)c2)n1 | 1 | 5
COc1ccc(-c2nc(OC(C)C)nn2-c2ccc(NC(=O)C3CCC3)cc2)cc1 | -8 | -14
COCc1nn2c(N)c(C#N)nnc2c1-c1ccccc1 | -20 | -16
CC1(C)Cc2cccc(C3CC(=O)Nc4[nH]ncc43)c2O1 (stereo not given) | 10 | 12
CCC(C(=O)Nc1cc(C)on1)N(C)Cc1ccc(OC(F)F)c(OC)c1 (stereo not given) | -4 | 1
CCCCCc1ccc(C(=O)NCC2CCN(c3nc(Cc4ccccc4)ns3)CC2)cc1 | -6 | -6

# More compounds
Compound | NPYLR7 ag max-min | NPYLR7 ag
O=C(CCCc1c[nH]c2ccccc12)N1CCCC1c1ccc(F)cc1 (stereo not given) | -5 | -1
CC(C)NC(=O)CCCn1nc(-c2ccc(F)cc2)ccc1=O | 1 | -1
O=S(=O)(c1ccc(-c2ccccc2)cc1)N1CCN(c2ccc3nncn3n2)CC1 | 8 | 3
Cc1occc1C(=O)NNC(=O)C(C)NS(=O)(=O)c1cccc(Cl)c1 (stereo not given) | 1 | 1
C#CCN1CCC[C@H]1C(=O)Nn1cnc2ccccc21 | 6 | 1
Cc1ccc(-c2cc(C(=O)Nc3ccc(F)cc3)c3ccccc3n2)cc1C | 3 | 3
Cc1ccnc2nc(CC#N)[nH]c12 | 9 | 11
O=C(O)C(O)(c1ccccc1)C(O)c1ccccc1 (stereo not given) | 7 | 13
Nc1nnc(CCCNC(=O)c2ccccc2N2CCOCC2)s1 | -3 | -3
CC(OC(=O)C1CCN(C(N)=O)CC1)C(=O)Nc1ccc(C#N)cc1 (stereo not given) | 6 | 11

# Next entries:
Compound | NPYLR7 ag max-min | NPYLR7 ag
Cn1cccc1C=CC(=O)O | -3 | -1
CC(C)(C)c1ccc(-c2nc3ccccc3[nH]2)cc1 | 10 | 31
CCc1nc(CCNC(=O)c2csc(S(N)(=O)=O)c2)cs1 | 1 | 2
COc1cccc(C(=O)N(CCN(C)C)Cc2c(-c3ccccc3)noc2N2CCCCC2C)c1 (stereo not given) | 10 | 11
C=CCCC(O)CN(Cc1ccc(F)cc1)Cc1cccc(OC)c1OC (stereo not given) | 0 | -2
CCCc1ncncc1C(=O)NCc1cc(F)cc2c(C)c(C)[nH]c12 | 8 | 17
Brc1ccc(-c2nc(-c3ccncc3)no2)cc1 | -5&-13 | -4&-6
Cc1cc(C)c2c(c1)C(=O)/C(=C\c1ccc(N(C)CCC#N)cc1)CC2 | -12 | -8
CN(CCn1ccnc1)C(=O)CC(c1ccccc1)c1ccccc1Cl (stereo not given) | 2 | 3
CCOC(=O)c1nc2cc(C)c(C)cc2nc1N1CCN(S(=O)(=O)c2ccc(OC)c(OC)c2)CC1 | 5 | 6

# The listing continues.
Compound | NPYLR7 ag max-min | NPYLR7 ag
CC(C)CN(CC(=O)N(CCc1c[nH]c2ccccc12)Cc1ccc(Cl)c(Cl)c1)C(=O)c1ccc(C(F)(F)F)cc1 | 11 | 17
Cc1cccnc1NC(=O)CC1CSc2nc3c(cnn3-c3ccc(F)cc3)c(=O)n21 (stereo not given) | -2 | 0
Cc1nn2c(NCCOCCO)cc(C(C)C)nc2c1-c1ccccc1 | 15 | -1
CC(=O)N1CCc2c(sc(NC(=O)c3ccc(C)cc3)c2-c2nc3ccccc3s2)C1 | 7 | 6
CCOC(=O)c1cc(C(C)C)sc1NC(=O)C(=O)c1c[nH]c2ccccc12 | 3 | 8
CCOc1ccc(N=c2scc(-c3ccc(OC)c(OC)c3)n2N2CCOCC2)cc1 | -8 | -7
CC(C)(C)NC[C@H](O)COc1cccc2c1CCCC2=O | -3 | 2
Cc1nccn1CC1CCCN(Cc2ccc(-c3cccnc3)cc2)C1 (stereo not given) | -1 | 1
Cc1cccc(N2CCN(CCn3c(=O)[nH]c4ccccc4c3=O)CC2)c1 | -2 | -1
CCC1c2ccsc2CCN1C(=O)NCc1ccc(C)n1C (stereo not given) | -3 | -2

# Carrying on:
Compound | NPYLR7 ag max-min | NPYLR7 ag
COCCN(Cc1ccccc1)C(=S)Nc1ccccc1F | -2 | 0
C#CCN(CC=C)Cc1cn[nH]c1-c1ccc(F)cc1 | 1 | 3
CC(C)N1CCN(Cc2ccc(C#CC(C)(C)O)s2)CC1CCO (stereo not given) | -3 | 1
CC1C(=O)c2cccc3c(=O)n(-c4ccccc4)c(O)c(c23)C1=O (stereo not given) | 83* | 83*
Cc1cc(NC(=O)Cc2cc(-c3ccc4c(c3)CC(C)O4)on2)no1 (stereo not given) | 6 | 5
O=C(CC1NC(=O)c2ccccc21)NCc1ccccc1-n1cccn1 (stereo not given) | -3 | 2
CCOc1cc(Cl)c(CN2CCCC2Cn2cccn2)cc1OC (stereo not given) | 1 | 6
O=C(NNC(=O)c1cccs1)c1ccc2ccccc2n1 | 3 | 3
CC(=O)c1ccc(N2CCN(C(C)C(=O)Nc3ccc4[nH]c(=O)[nH]c4c3)CC2)cc1 (stereo not given) | 8 | 9
CCc1ncc(C(=O)N2CCCC(Cn3cc(-c4ccccc4)nn3)C2)cn1 (stereo not given) | 2 | 3

# The results go on.
Compound | NPYLR7 ag max-min | NPYLR7 ag
CC1CCCCC1NC(=O)C(C#N)=Cc1ccc(F)cc1 (stereo not given) | 3 | 10
CCc1nn(C)c(Cl)c1CN1CCC(c2nn(C)c(=O)n2CC)CC1 | 6 | 6
COc1ccc(CN2CCN(Cc3ccc(OC)c(O)c3)CC2CCO)cc1C (stereo not given) | -5 | -3
CC(C)c1nncn1CCNc1cccc(F)c1C#N | 8 | 13
CC(NC(=O)CCc1nnc(-c2ccc3c(c2)OCO3)o1)c1cccc2ccccc12 (stereo not given) | 10 | 5
CSc1ccccc1C(=O)Nc1cc(-c2cccs2)nn1-c1nc(C)c(C)c(=O)[nH]1 | 13 | 15
CCCCCNc1cc(C)nc2c(-c3ccccc3)c(C)nn12 | -4 | -1
c1cncc(CSc2ccc(-c3cccnc3)nn2)c1 | -13 | 1
Cc1ccc(-c2nc(C=Nc3cc(Cl)ccc3C)c(O)o2)cc1 | -12 | -5
Cn1cc(C(NC(=O)c2ccc(Cl)cn2)C(C)(C)C)cn1 (stereo not given) | -26&2 | -25&3

# Sorted by molecular weight (rising): seven of the compounds above.
Compound | NPYLR7 ag max-min | NPYLR7 ag
CCCCCNc1cc(C)nc2c(-c3ccccc3)c(C)nn12 | -4 | -1
Cc1ccc(-c2nc(C=Nc3cc(Cl)ccc3C)c(O)o2)cc1 | -12 | -5
O=c1nc(SCc2cccc3ccccc23)c2c(n1CCCO)CCC2 | -14 | -7
CN(CCn1ccnc1)C(=O)CC(c1ccccc1)c1ccccc1Cl (stereo not given) | 2 | 3
CCC(C(=O)Nc1cc(C)on1)N(C)Cc1ccc(OC(F)F)c(OC)c1 (stereo not given) | -4 | 1
COc1ccc(-n2nnc3c(SCC(=O)N4CCc5ccccc54)ncnc32)cc1 | 13 | 11
CSc1ccccc1C(=O)Nc1cc(-c2cccs2)nn1-c1nc(C)c(C)c(=O)[nH]1 | 13 | 15

# (next part)
Compound | NPYLR7 ag max-min | NPYLR7 ag
CN(CC(F)(F)F)C(=O)CNC(=O)NC1(c2cccc(F)c2)CC1 | -5 | -4
CCCc1cnc2c(c1SCC(=O)Nc1c(C)cc(C)cc1C)c(=O)n(C)c(=O)n2C | 7 | 6
Cn1c(=O)[nH]c(=O)c2c1nc(N1CCCC1)n2CCSc1nc2ccccc2s1 | 27 | 2
COc1ccccc1NS(=O)(=O)c1cccc(C(=O)Nc2ccccc2C(=O)O)c1 | -27 | -20
COc1nc(OC)nc(-c2ccc(F)c(CO)c2)n1 | 13 | 13
COc1cc(OC)cc(C(=O)Nc2nc(-c3ccc4c(c3)CCC(=O)N4)cs2)c1 | -2 | -4
CCCn1cc(CNC(C)c2cnn(-c3cccc(F)c3)c2C)c(C)n1 (stereo not given) | -11 | -11
CC(C)=CC(=O)Nc1cc(C(F)(F)F)ccc1NS(C)(=O)=O | 2 | 3
CC(C)c1nccn1CCCNC(=O)c1cnccn1 | -7 | -4
CCNC(=S)NCc1ccc2[nH]c(C)cc2c1 | 10 | 4

# (list continues)
Compound | NPYLR7 ag max-min | NPYLR7 ag
O=C(CSc1nnnn1C1CC1)N1CCN(C(=O)c2cccs2)CC1 | 7 | 0
CC(=O)Nc1nc(C(C)(C)C)cs1 | 3 | 4
CCOC(=O)N1CCC(Nc2nc(-c3ccc4c(c3)CCC(=O)N4)cs2)CC1 | -1 | -1
CN(C)c1nc(N)nc(CN2CCN(CC(F)(F)F)c3ccccc32)n1 | 1 | 5
CCCc1cc(=O)[nH]c(-n2nc(C)cc2NC(=O)Cc2ccc(OC)c(OC)c2)n1 | -6 | -4
CCc1nn(C)c(Cl)c1CN(C)Cc1cnn(-c2ccccc2)c1 | -8 | -1
Cc1ccc(Sc2c(C)nn(C(=O)CNS(=O)(=O)c3ccccc3)c2C)cc1 | 2 | 1
OCC1(Cc2ccccc2Cl)CCN(Cc2cccc3cccnc23)CC1 | 2&-7 | 5&-6
CCOC(=O)c1cc(-c2cccc(NC(=O)c3ccc4sccc4c3)c2)n(-c2ccccn2)n1 | 2 | 4
